ClpP mod: qHTS Assay for Activators of ClpP; ATP-dependent Clp protease proteolytic subunit (Bacillus subtilis (strain 168)), P80244; purified B. subtilis ClpP, FRET peptide cleavage, 20 min; Potency, µM (top dose mostly 57.5 µM), for the others: at the top dose activity change, negative = active; 1.9% of 340,000 active; active = well fitted falling curve with a large enough effect; inconclusive = small, poorly fitted or top-dose-only effect; inactive = no such curve, though single readings can be large or run the other way; note: potency is the fitted concentration of half-maximal effect; the source files actives as falling curves though it sought activators and does not explain the sign; nearly all actives have a fitted effect of over 65% in size; many hits overshoot -100%
Target sequence (P80244 whole entry, looked up): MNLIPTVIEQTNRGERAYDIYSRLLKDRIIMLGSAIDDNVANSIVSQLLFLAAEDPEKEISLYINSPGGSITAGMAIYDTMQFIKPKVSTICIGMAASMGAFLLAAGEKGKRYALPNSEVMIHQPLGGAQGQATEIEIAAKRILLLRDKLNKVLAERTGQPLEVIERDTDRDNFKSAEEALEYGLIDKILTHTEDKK
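Buffer: 100 mM Tris/HCl pH8, 100 mM KCl, 0.05% low protease BSA, 2.5% glycerol, 0.01% Tween-20. ClpP 10 microg/mL final; 20 min RT; delta FRET normalized to ADEP and DMSO controls.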
Sfp PPTase inh: Sfp phosphopantetheinyl transferase inhibition; Q9F4F7; Biochemical Sfp PPTase activity, qHTS; Potency, µM, without a hit: max response, negative = inhibition, usual class: inhibitors; 3.5% of 310,000 active; AID 1490; active = well fitted inhibition curve with a large enough effect; inconclusive = small, poorly fitted or top-dose-only effect, or another doubt; inactive = no such curve, though single readings can be large or run the other way;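 note: the enzyme is Sfp with the accession as filed and its product quenches rhodamine fluorescence; potency is the fitted concentration of half-maximal effect; 0% = enzyme reaction without inhibitor and -100% = no enzyme wells; top concentration of the series not given in the record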
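Fluorescence-quenching assay with 15 nM Sfp, 5 uM rhodamine-CoA and 12.5 uM BHQ-2-labelled ybbR peptide in pH 7.6 Hepes/MgCl2 buffer. Enzyme was pre-incubated with compound for 15 min at room temperature. Rate was taken from the 30-min fluorescence change (525/598 nm).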
TRPML1 inh: blocks the human TRPML1 channel | activity change, negative = inhibition, % (concentration not given with the values) | TRPML1-inducible cells, Ca2+ dye fluorescence, FDSS; active compounds read low; inhibition of EC80 agonist-evoked calcium signal | 0.02% of 390,000 active | Q9GZU1; in the data active means activity change below about -50%; inconclusive means about -30% to -50%; inactive means above about -30%;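 note: stimulus is agonist 54-4 at its EC80 concentration; % is set by controls: 0 for no effect and ±100 for the full control effect; the text of the record puts the active cut at -80%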
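Tet-induced TRPML1-DL cells loaded with Ca8 no-wash calcium dye were read kinetically on FDSS. Compound addition was followed by EC80 agonist 54-4 (4 uM final); inhibition was read over 110 s.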
gsp antag: antagonists of gsp mutant (McCune-Albright syndrome) | gsp-mutant cells, cAMP HTRF, 30 min; control for the full effect not named in the record | Potency, µM (series often up to 76.9 µM), for inactives: at the top dose activity change, negative = inhibition, actives largely listed as inhibitors | 0.4% of 340,000 active | AID 624288; active = falling curve of any shape with a large fitted effect; inconclusive = falling curve, mostly with a smaller effect; inactive = flat or rising curve; cell line not stated here;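 note: intracellular cAMP measured with PDE inhibitor Ro 20-1724 present during compound exposure; potency is the fitted concentration of half-maximal effect; % is set by controls: 0 for no effect and ±100 for the full control effect; nearly all actives have a fitted effect of over 65% in size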
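Cells in G418 medium, seeded 16-24 h, 37C; buffer exchange to DPBS + 1 mM CaCl2, 0.5 mM MgCl2, 0.05% BSA; cpds in DMSO + […] (300 uM stock), 30 min 37C; HTRF cAMP detection.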
TRPV1 potentiator: enhances activation of the human vanilloid receptor TRPV1; TRPV1-expressing cells, Fluo-8 calcium influx, capsaicin EC20 potentiation; host cell line not named in the record; control for the full effect not named in the record; potentiation, % at 8.33 µM; Q8NER1; 0.02% of 320,000 active; AID 540277; active means potentiation above 80%; inconclusive means 30% to 80%; inactive means below 30%; note: 0% is about no effect
Target sequence (Q8NER1 whole entry, looked up): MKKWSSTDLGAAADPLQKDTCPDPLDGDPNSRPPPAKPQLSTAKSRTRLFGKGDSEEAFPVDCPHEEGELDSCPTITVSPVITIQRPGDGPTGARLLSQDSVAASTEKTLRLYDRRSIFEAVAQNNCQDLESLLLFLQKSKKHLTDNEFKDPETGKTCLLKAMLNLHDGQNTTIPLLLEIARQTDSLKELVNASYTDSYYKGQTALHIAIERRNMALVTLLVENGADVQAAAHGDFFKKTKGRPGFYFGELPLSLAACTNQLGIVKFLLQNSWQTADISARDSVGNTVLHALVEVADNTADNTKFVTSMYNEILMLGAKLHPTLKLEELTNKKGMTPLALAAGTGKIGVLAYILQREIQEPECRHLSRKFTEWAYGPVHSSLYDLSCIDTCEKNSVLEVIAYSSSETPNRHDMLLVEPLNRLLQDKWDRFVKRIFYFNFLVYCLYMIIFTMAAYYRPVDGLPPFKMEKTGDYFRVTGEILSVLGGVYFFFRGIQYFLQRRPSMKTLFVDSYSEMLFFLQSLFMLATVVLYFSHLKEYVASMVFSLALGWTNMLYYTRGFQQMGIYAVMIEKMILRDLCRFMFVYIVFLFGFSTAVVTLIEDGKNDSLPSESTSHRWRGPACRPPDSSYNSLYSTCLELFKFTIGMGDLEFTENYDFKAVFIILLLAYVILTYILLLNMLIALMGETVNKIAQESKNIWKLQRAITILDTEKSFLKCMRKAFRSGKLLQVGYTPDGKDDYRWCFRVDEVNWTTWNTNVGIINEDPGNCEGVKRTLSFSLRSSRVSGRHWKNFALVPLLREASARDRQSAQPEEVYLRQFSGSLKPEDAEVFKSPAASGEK
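Fluo-8 calcium influx in TRPV1-expressing cells, kinetic read (ex 480/em 520 nm). Compound added and read 3 min for agonist activity, followed by capsaicin at EC20 final and 2 min further read for enhancement.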
Menin-MLL FL inh: displaces fluorescein MLL peptide from human menin. 290,000 tested, under 10 active. FP activity change, % at 61.4 µM. Fluorescence polarization, fluorescein-MLL peptide displacement from menin; inconclusive = falling polarisation curve, or a change in total fluorescence; inactive = total fluorescence flat and polarisation flat or rising; no compound was filed as active; the % refers to the polarisation; negative = inhibition;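 note: % of control where 0% means no effect; inhibitors lower the polarisation; unlabelled MLL peptide was the positive control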
gsp agonist: agonists of gsp mutant (McCune-Albright syndrome) | gsp mutant cells, cAMP HTRF, 30 min; control for the full effect not named in the record | Potency, µM (highest dose often 76.9 µM), inactives show at the top dose activation (cAMP increase), hits mostly activators | 0.13% of 340,000 active | AID 624287; active = well fitted activation curve with a large enough effect; inconclusive = small, poorly fitted or top-dose-only effect, or another doubt; inactive = no such curve, though single readings can be large or run the other way; cell line not stated here;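 note: phosphodiesterase inhibitor Ro 20-1724 added with compounds to block cAMP breakdown; potency is the fitted concentration of half-maximal effect; nearly all actives have a fitted effect of over 60% in size; about a fifth of the inactives were tested at one dose only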
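Cells in DMEM/10% FBS with G418 were pretreated with compounds in DMSO plus […] (300 uM stock) for 30 min at 37C. cAMP was measured by HTRF (cAMP-d2 plus anti-cAMP antibody-K) after 30 min at room temperature.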
Starred values were filed as active, the others as inactive; ? = inconclusive; nt = no result given; [ ] = another dose, or the depositor's remark.

Value order – ClpP mod	Sfp PPTase inh	TRPML1 inh	gsp antag	TRPV1 potentiator	Menin-MLL FL inh	gsp agonist
O=C1NC(Cc2ccccc2)c2nc3ccc(F)cc3c(=O)n2-c2ncccc21 (stereo not given)
 : -6.0%	nt	44	nt	nt	nt	0%
CC1CCCC(NC(=O)C2CCN(S(=O)(=O)N3CCC4(CC3)OCCO4)CC2)C1C (stereo not given)
 : 1.6%	8%	10	6%	1	1.4	4%
O=C(CC(c1ccccc1)c1ccccc1O)NCCc1ccccc1 (stereo not given)
 : -1.3%	11%	5	-16%	3	-4.7	25%[15.4 µM]
O=S(=O)(NCc1c(Cl)cccc1Oc1ccccc1)c1ccccc1
 : nt	14%	2	-9%	nt	0.1	-1%[15.4 µM]
COc1ccc(C2=NCCn3c2c2ccc(C(F)(F)F)cc2[n+]3[O-])cc1
 : -1.5%	nt	36	7%	-19	nt	29%
COc1ccc(C2=CC(=O)C[C@H](c3ccc4c(c3)OCO4)C2)cc1
 : -2.4%	nt	0	-22%	-13	nt	-15%
Cn1c(=O)n(C)c2cc(NC(=O)CSc3nc4ccccc4c(=O)[nH]3)ccc21
 : nt	11%	16	1%	?	0.7	0%[15.4 µM]
CCCC(C(=O)NC(C)(C)C)N(C(=O)c1snc(C(N)=O)c1N)c1ccc2c(c1)OCCO2 (stereo not given)
 : nt	6%	-2	-7%	-15	-6.0	-1%
CCc1cc(Br)ccc1NC(=S)NCCc1ccccc1
 : -0.1%	-10%	21	-7%	-9	nt	?
O=C(O)CC(Cc1ccc(Cl)cc1)C(=O)NCc1ccccc1 (stereo not given)
 : 3.1%	16%	-6	34%[activator]	3	0.3	22%
COc1cc(C2CC(=O)N(CC(=O)NCC3CCCO3)c3ccccc3S2)cc(OC)c1OC (stereo not given)
 : nt	13%	-4	24%	-15	5.5	-13%
O=C(CCC(=O)N1CCOc2ccccc21)Nc1ccccc1Cl
 : -2.2%	13%	32	-7%	-6	-3.1	?
Cc1ccc(NC(=O)c2ccc3c(c2)OCO3)cc1Cl
 : -1.4%	-4%	-6	-11%	-11	-3.2	-3%
COC(=O)c1ccc(Nc2cc(C)nc(-c3ccccc3O)n2)cc1
 : ?	21%	-1	-11%	0	0.3	?
Cc1nn(C)c(Cl)c1CN1CCCC(CCC(=O)NCc2ccccc2F)C1 (stereo not given)
 : nt	7%	9	-3%	-2	-0.6	36%[15.4 µM]
O=S(=O)(Nc1c(F)cccc1F)c1ccc(Cl)nc1
 : nt	nt	6	3%	4	nt	1%[15.4 µM]
CCCC1OC23CCCCC2C(C#N)(C#N)C1(C#N)C(=N)O3 (stereo not given)
 : 20µM*	-10%	-11	-8%	-19	?	19%[15.4 µM]
Cn1cc(/C=C(\NC(=O)c2ccccc2)C(=O)N2CCOCC2)c2ccccc21
 : -1.8%	-3%	6	-2%	-22	0.1	-11%
O=C(NN1C(=O)c2ccccc2NC1c1ccc([N+](=O)[O-])o1)c1ccc(Br)cc1 (stereo not given)
 : 0.5%	-4%	21	-18%	-6	0.0	-5%
COc1cc(S(=O)(=O)N2CCOCC2)ccc1NC(=O)COC(=O)c1cc(OC)c(OC)c(OC)c1
 : -1.4%	nt	4	-2%	nt	nt	-23%
CCc1sc(C(=O)Nc2nc(C)cs2)cc1C
 : nt	7%	-6	16%	-27	12	-3%[15.4 µM]
Cc1ccc2[nH]c(=O)c(C(c3nnnn3Cc3ccccc3)N3CCc4ccccc43)cc2c1 (stereo not given)
 : -12%	20µM*	-4	-14%	-19	1.0	-2%
COc1ccc(NC(=O)C2CCCN2S(=O)(=O)c2ccc3c(c2)CC(C)N3C(C)=O)cc1OC (stereo not given)
 : -1.0%	5%	26	-6%	12	-1.8	1%
O=C(COC(=O)c1ccc(-c2nnc(-c3ccccc3)o2)cc1)c1ccccc1
 : 1.4%	9%	1	23%	-2	2.1	24%
O=c1c2ccccc2nc2ccc(NCc3cccs3)nn12
 : -13%	21%	-3	8%	-7	4.0	8%
COc1cccc2sc(/N=C/N(C)C)nc12
 : nt	12%	11	7%	4	-1.9	-4%
CN(C)S(=O)(=O)c1cccc(NC(=O)c2cc(=O)[nH]c3ccccc23)c1
 : -16%	17%	-1	9%	?	3.0	?
OCc1ccccc1OCCOc1ccc(Cl)c2cccnc12
 : ?	9%	-14	-2%	6	-0.4	-2%
Cc1ccc(S(=O)(=O)NNC(=O)c2sc(NS(=O)(=O)c3ccccc3)nc2C)cc1
 : nt	-7%	9	2%	2	nt	-7%[15.4 µM]
CCC(C)NC(=O)C1CCN(S(=O)(=O)c2ccc3[nH]c(=O)ccc3c2)CC1 (stereo not given)
 : -18%	18%	2	-7%	-20	-0.1	-52%[inhibitor]
CCc1sc(C(=O)NC)cc1Br
 : -0.6%	10%	-5	-2%	5	-1.1	8%
CC(C)(C)C(=O)Nc1ccccc1C(=O)NCCCn1ccnc1
 : nt	10%	70	1%	26	2.2	5%[15.4 µM]
COC(=O)[C@]1(Cc2ccccc2)N[C@H](CN(C)C(=O)Nc2ccc(Cl)cc2)[C@@H]2C(=O)N(Cc3ccccc3)C(=O)[C@@H]21
 : -0.1%	nt	8	-6%	nt	nt	nt
CC(=O)c1ccccc1OC(=O)c1c(F)cccc1F
 : 1.6%	13%	-11	8%	-7	-1.2	-6%
O=C(O)c1ccccc1C(=O)NNc1ccc(Cl)cc1
 : 1.4%	15%	60	8%	nt	1.3	-4%
COc1cc(C=O)ccc1OC(=O)c1ccncc1
 : 2.1%	-4%	8	8%	-1	0.1	-28%
O=C1C=C(N2CCCCCC2)C(=O)N1c1ccc(Cl)cc1
 : nt	-8%	-6	-12%	8	-2.8	-9%[15.4 µM]
CCCCC(=O)NNC(=S)NC(=O)CCC
 : -1.0%	79µM*	-1	-8%	-11	4.5	-8%
COc1ccc(S(=O)(=O)N2CCCN(CC(=O)C(C)(C)C)CC2)cc1
 : 2.3%	-27%	-22	2%	nt	0.2	-49%[inhibitor]
Cc1coc2c1c(C)cc1oc(=O)c(CC(=O)NCC(=O)N[C@H](C(=O)O)C(C)C)c(C)c12
 : nt	2%	12	8%	12	-1.0	?
Cn1c(=O)n(C)c2cc([N+](=O)[O-])c(N3CCN(C(=O)c4ccc(Cl)cc4)CC3)cc21
 : 1.2%	-18%	8	4%	6	3.9	-1%
CC(C)CCNC(=O)C(=O)Nc1ccccc1
 : nt	9%	2	12%	-35	0.2	7%
CCOC(=O)c1ccc(NC(=O)NC(C)C2CCCO2)cc1 (stereo not given)
 : -3.9%	9%	16	2%	6	3.4	0%
NS(=O)(=O)c1ccc(CCNC(=O)CSc2ccc(Cl)cc2Cl)cc1
 : nt	-10%	-1	3%	-4	0.2	26%[15.4 µM]
O=S(=O)(c1ccccc1)N1CCN(S(=O)(=O)N2CCCCC2)CC1
 : -0.7%	-2%	22	13%	-8	3.4	-22%
COc1ccc(S(=O)(=O)N2CCN(C3CCN(Cc4ccccc4)CC3)CC2)cc1
 : -1.2%	14%	49	5%	-4	3.3	15%
COc1ccc(S(=O)(=O)N2CCCCCC2)cc1C(=O)OCc1c(C)noc1C
 : 0.0%	0%	46	2%	-10	0.8	?
O=C(/C=C/c1ccc2c(c1)OCO2)NCc1ccncc1
 : nt	-3%	-5	0%	0	-4.9	-57%[inhibitor]
OCC[C@@H]1C[C@@H](O)[C@H](O)[C@]2(CCc3ccccc3O2)O1
 : -1.3%	9%	16	10%	-20	2.5	1%
COc1ccc(-c2ccc3oc(-c4ccsc4)cc(=O)c3c2)cc1F
 : ?	nt	3	-2%	nt	nt	nt
O=C(CNS(=O)(=O)c1ccccc1)N/N=C\c1ccc(Cl)cc1
 : -29%	-9%	30	-16%	9	0.9	-22%
COc1ccccc1NC(=O)C1CCCN(S(=O)(=O)c2ccc3[nH]c(=O)ccc3c2)C1 (stereo not given)
 : -11%	14%	-1	5%	-27	5.4	?
COC(=O)c1cc(NC(=O)CN(c2ccc3c(c2)OCO3)S(C)(=O)=O)ccc1Cl
 : -1.1%	9%	4	-4%	-16	0.0	-37%[inhibitor]
Cc1cc(Nc2ccc(Cl)cc2)nc(NCc2ccccc2)n1
 : -8.3%	20µM*	35	8%	-21	nt	-9%
Cc1ccc(N2C(=O)C3C(c4ccccc4)N4CCCN4C3(C)C2=O)cc1 (stereo not given)
 : -1.6%	-4%	-11	4%	-6	-4.3	-33%[15.4 µM]
CC1CCN(C(=O)c2ccc(COc3ccccc3Cl)o2)CC1
 : -0.5%	-12%	6	?	-3	1.5	?
Cc1nc2ccc(C(=O)N/N=C/c3cc([N+](=O)[O-])ccc3O)cc2[nH]1
 : 2.7%	-13%	-1	6%	8	5.4	2%
CCOC(=O)C1CCN(C(=O)CSc2ccc(Br)cc2)CC1
 : nt	9%	-9	2%	-31	-4.2	-15%
CCCn1c(N)c(C(=O)CSc2nc(N)cc(=O)[nH]2)c(=O)n(C)c1=O
 : -1.2%	nt	10	12%	12	nt	?
O=S(=O)(c1ccc(Cl)cc1)N1CCCCCC1
 : 1.3%	5%	53	10%	-2	-2.0	-29%

Assay outcomes from PubChem.
